CHT inh: human CHT choline transport inhibition; Q9GZV3; CHT-expressing cells, membrane potential dye, choline response; active compounds read low; B-score at 10 µM; 310,000 tested, 0.86% active; AID 488975;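 active = B-score over 3 SD under the library average, and starting fluorescence ratio not unusually high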;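 also: choline stimulus applied at its EC90 after an EC20 pre-addition; B-score computed on integrated fluorescence ratio after choline addition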
Target sequence (Q9GZV3 whole entry, looked up): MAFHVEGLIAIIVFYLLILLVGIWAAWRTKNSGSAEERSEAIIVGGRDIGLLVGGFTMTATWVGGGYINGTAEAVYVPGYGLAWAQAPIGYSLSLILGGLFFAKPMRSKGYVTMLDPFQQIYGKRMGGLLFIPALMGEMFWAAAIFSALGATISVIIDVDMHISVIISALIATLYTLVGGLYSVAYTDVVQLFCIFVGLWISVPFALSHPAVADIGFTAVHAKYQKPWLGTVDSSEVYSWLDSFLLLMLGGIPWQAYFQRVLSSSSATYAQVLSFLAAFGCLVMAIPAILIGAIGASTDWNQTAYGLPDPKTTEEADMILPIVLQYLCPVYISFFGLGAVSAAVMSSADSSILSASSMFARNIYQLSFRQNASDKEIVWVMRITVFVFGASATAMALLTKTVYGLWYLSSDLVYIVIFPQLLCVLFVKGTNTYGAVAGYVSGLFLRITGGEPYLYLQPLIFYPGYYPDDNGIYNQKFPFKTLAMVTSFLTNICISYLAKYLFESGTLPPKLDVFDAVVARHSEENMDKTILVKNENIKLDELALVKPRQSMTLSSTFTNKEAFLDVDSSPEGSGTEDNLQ
Calls only; i = inactive. A portion of the library; most or all hits stand in other tables.

SMILES	CHT inh
COc1ccc(OCCC(=O)OCC(=O)NCc2ccccc2)cc1	i
COc1ccccc1N1CCN(C(=O)c2ccoc2C)CC1	i
CCOC(=O)c1ccc(NS(=O)(=O)c2ccc3c(c2)CCCN3C(C)=O)cc1	i
COC(=O)C1CCC(C)(C(=O)Nc2ccccc2)C1(C)C (stereo not given)	i
CC1CCN(Cc2cnc(Cl)s2)CC1	i
CC(C)c1ccc(CN2C(=O)c3ccccc3S2(=O)=O)cc1	i
Cc1ccc2nc(NCCNC(=O)c3ccccc3)c(C#N)cc2c1	i
Cc1ccc(SCC(=O)N2CCCC2)cc1	i
CCc1ccc(NC(=O)CNC(=O)Cn2ccc3ccccc3c2=O)cc1	i
O=C(Nc1ccccc1C(F)(F)F)c1ccc(F)c(S(=O)(=O)N2CCOCC2)c1	i
C=CCN1C2CCCC1CC(NC(=S)Nc1ccc(Cl)cc1)C2 (stereo not given)	i
COc1cccc(N2CC(NC(=O)C(=O)c3c[nH]c4ccccc34)CC2=O)c1 (stereo not given)	i
COc1cccc(C(=O)NC(=S)N2c3ccccc3CC2C)c1OC (stereo not given)	i
Cc1cc(NC(=O)CSc2nnc(-c3cccc(Cl)c3)o2)no1	i
CCN(CC)S(=O)(=O)c1ccc(N2CCOCC2)c(NC(=O)Cc2ccccc2F)c1	i
Cc1ccc2cc(CN(Cc3ccco3)S(=O)(=O)c3c(C)ccc4nsnc34)c(=O)[nH]c2c1	i
Fc1ccccc1NC(=S)N1CCN(C/C=C/c2ccccc2)CC1	i
O=C(CC(NCc1ccccn1)C(=O)O)Nc1ccccc1Cl (stereo not given)	i
O=C(CNCC1CCCO1)Nc1ccccc1N1CCOCC1 (stereo not given)	i
Cc1nn(-c2ccccc2)c(Cl)c1/C=C/C(=O)c1ccccc1	i

Reprinted from the part before: 2 compounds, followed by the next part.
SMILES	CHT inh
O=C(CNCC1CCCO1)Nc1ccccc1N1CCOCC1 (stereo not given)	i
Cc1nn(-c2ccccc2)c(Cl)c1/C=C/C(=O)c1ccccc1	i
Cc1ccccc1S(=O)(=O)Cc1ccc(C(=O)N2CCN(c3ccccc3F)CC2)o1	i
Cc1ccc(C(=O)Nc2c(C(=O)NCc3ccco3)cnn2-c2ccccc2)cc1	i
COc1ccccc1CNS(=O)(=O)c1c(C(=O)N2CCCCC2)c(C)n(C)c1C	i
c1ccc2c(c1)[nH]c1nc(SCCN3CCOCC3)nnc12	i
CCCCC(=O)Nc1ccc(C(=O)NNC(=S)NC(=O)c2ccco2)cc1	i
CCCC(C)NC(=O)c1cc(Cl)ccc1OC (stereo not given)	i
O=C(CN1C(=O)C2C3C=CC(C3)C2C1=O)NCCc1ccccc1Cl (stereo not given)	i
Cc1nnsc1C(=O)N1CCC(CO)(Cc2ccccc2Cl)CC1	i
CCCCOC(=O)c1cccc(NC(=O)CCC(=O)O)c1	i
CC(C)c1ccc(Nc2nc(CC(=O)O)cs2)cc1	i
NC1=NC(=Nc2ccc(Cl)cc2)c2ccccc21	i
O=C(Nc1cc(S(=O)(=O)N2CCOCC2)ccc1OCC(F)(F)F)c1ccc(N2CCCC2=O)cc1	i
COc1cc(OC)cc(C(=O)Nc2sc3c(c2C(N)=O)CCC3)c1	i
CC(=O)N1CC=C2C(C#N)=C(N)C(C#N)(C#N)[C@H](c3ccoc3)[C@H]2C1	i
Cc1cccc(N(CC(=O)N2CCCCCC2)S(C)(=O)=O)c1	i
CCOc1ccc(S(=O)(=O)N2CCCCC2)cc1NC(=O)CN1C(=O)NC(CC)(c2ccccc2)C1=O (stereo not given)	i
Cn1c(SCC(=O)c2ccc(O)cc2O)nnc1-c1ccccc1	i
O=C(Nc1nc(-c2cccnc2)cs1)c1cccc([N+](=O)[O-])c1	i
CCOc1ccc(N2C(=O)CC(Sc3ccccc3C(=O)O)C2=O)c([N+](=O)[O-])c1 (stereo not given)	i
CS(=O)(=O)N1N=C(c2ccco2)CC1c1ccc(Cl)cc1Cl (stereo not given)	i

4 of these compounds, reformatted:
SMILES: c1ccc2c(c1)[nH]c1nc(SCCN3CCOCC3)nnc12
  CHT inh: i

SMILES: CCCCC(=O)Nc1ccc(C(=O)NNC(=S)NC(=O)c2ccco2)cc1
  CHT inh: i

SMILES: CCCC(C)NC(=O)c1cc(Cl)ccc1OC (stereo not given)
  CHT inh: i

SMILES: O=C(CN1C(=O)C2C3C=CC(C3)C2C1=O)NCCc1ccccc1Cl (stereo not given)
  CHT inh: i

Structural class, those above containing an aryl thioether with sulfur outside any ring (5)
SMILES	CHT inh
Cc1ccc(SCC(=O)N2CCCC2)cc1	i
Cc1cc(NC(=O)CSc2nnc(-c3cccc(Cl)c3)o2)no1	i
c1ccc2c(c1)[nH]c1nc(SCCN3CCOCC3)nnc12	i
Cn1c(SCC(=O)c2ccc(O)cc2O)nnc1-c1ccccc1	i
CCOc1ccc(N2C(=O)CC(Sc3ccccc3C(=O)O)C2=O)c([N+](=O)[O-])c1 (stereo not given)	i

The list goes on.
SMILES	CHT inh
COC(=O)C1=C(C)N(Cc2ccco2)C(=O)N[C@H]1c1ccccc1	i
C=CCC(C#Cc1ccc(C)cc1)N(CC)CC (stereo not given)	i
Cc1c(C(=O)N2CCN(c3ncccn3)CC2)sc2nc3n(c(=O)c12)CCCC3	i
Cc1ccc(S(=O)(=O)N(CC(O)CN2CCOCC2)c2cccc([N+](=O)[O-])c2)cc1 (stereo not given)	i
OCC1(c2cc(C(F)(F)F)n[nH]2)CCCCC1	i
CCOC(=O)c1c(-c2ccccc2)csc1NC(=O)CSc1nnc(C)s1	i
CCOP(=O)(OCC)/C(C#N)=C(\O)c1ccc(OC)cc1	i
CC1(C)Cc2c(cnn2-c2ccccc2)C(=O)/C1=N\NC(=O)c1ccccc1N	i
O=C(C1CCN(S(=O)(=O)c2cccc3cccnc23)CC1)N1CCN(c2ccc(Cl)cc2)CC1	i
CCC(=O)N(C)CCc1cc2c(c(OC)c1/C=N/NS(=O)(=O)c1ccc(C)cc1)OCO2	i
COc1ccccc1/C=C/CN1CCC(n2nccc2NC(=O)CCc2ccccc2)CC1	i
COc1ccc(NC(=O)COC(=O)/C=C/c2ccccc2[N+](=O)[O-])cc1	i
COc1ccc(C2(CNC(=O)c3ccc(OC)c([N+](=O)[O-])c3)CCCCC2)cc1OC	i
CC(C)NC(=O)CN1CCN(c2ncccn2)CC1	i
Cc1ccc(NC(=S)NCc2ccccc2)cc1C	i
Cc1ccc(C(=O)NNc2c3ccccc3nc3ccccc23)cc1	i
COC(=O)C1=C(C)N(c2ccc(C)c(C)c2)/C(=C/c2ccc(O)cc2)C1=O	i
O=C(N[C@@H](Cc1c[nH]c2ccccc12)C(=O)O)C1CCN(S(=O)(=O)c2cccs2)CC1	i
Cc1cc(C(=O)O)c(C)n1-c1ccccc1	i
O=C(CNC1CCCCC1)N1CCc2ccccc2C1	i
COc1ccc(CCNC(=O)CO/N=C/c2cc3c(cc2Br)OCO3)cc1OC	i
CCC(C)CCN1C(Nc2ccccc2)=NC[C@@H]1CC(C)C (stereo not given in full)	i
Fc1cccc(/C=N/n2c(C3CCCCC3)n[nH]c2=S)c1	i
Cn1nc([N+](=O)[O-])nc1Oc1ccccc1C(=O)N1CCOCC1	i
O=C(CCCCCNc1nc(=S)[nH]c2ccccc12)N1CCN(c2ccccn2)CC1	i
O=C(CSc1nnnn1-c1ccc(F)cc1)Nc1ccc(N2CCOCC2)c(Cl)c1	i
Cc1cccc(C(=O)O/N=C2\CCS(=O)(=O)c3sccc32)c1	i
COc1ccc(NC(=O)NCCN2CCCCC2)cc1	i
CC(C(=O)O/N=C(\N)c1ccccn1)c1ccc([N+](=O)[O-])cc1 (stereo not given)	i
COc1cccc2cc(C(=O)C3=C(O)C(=O)N(CCN(C)C)C3c3ccc(F)cc3)oc12 (stereo not given)	i
CCOC(=O)Cc1ccc(NCc2ccc(Cl)cc2)cc1	i
O=C(Cc1ccccc1)NNS(=O)(=O)c1ccc(F)cc1	i
c1ccc(-c2csc3ncnc(N4CCN(Cc5ccc6c(c5)OCO6)CC4)c23)cc1	i
CCCc1nc2scc(-c3ccccc3)c2c(=O)n1N	i
CCN(c1ccccc1)S(=O)(=O)c1ccc(C(=O)Nc2ccccn2)cc1	i
CCc1nnc(NC(=O)c2cc(OC)c(OC)cc2[N+](=O)[O-])s1	i
Cc1ccc(NC(=O)c2sccc2C)nc1	i
Cc1cccc(C)c1NC(=S)N(CCN1CCCCCC1)Cc1ccco1	i
CCc1nnc(NC(=O)CCC(=O)NC2CCCCCCC2)s1	i
O=C(N/N=C/c1ccc(F)cc1)c1cc(-c2ccco2)nc2ccccc12	i
O=C(N/N=C/C=C/c1ccccc1)c1n[nH]c2c1CCC2	i
COc1ccc(NC(=O)[C@@H](NC(N)=O)C(C)C)cc1Cl	i
O=C(NCCc1nc(-c2ccccc2Cl)no1)c1ccccc1	i
O=C(CCNS(=O)(=O)c1ccccc1C(F)(F)F)NCc1ccc2c(c1)OCO2	i
CCC(C)(C)NC(=O)CN(C(=O)CCC(=O)Nc1cc(C)ccn1)c1ccc2c(c1)OCCO2	i
COc1ccc(N(CC(=O)NCCSc2ccccn2)S(C)(=O)=O)cc1Cl	i
Cc1nc(-c2nnc(-c3ccccc3)o2)c(C(F)(F)F)o1	i
Cc1ccsc1-c1nc(CN2CCCC2c2ccc(F)cc2)c(C)o1 (stereo not given)	i
COC(=O)c1cccc(C(=O)Nc2ccc(F)cc2)n1	i
Cc1cccc(N2C(=O)C3C(c4ccccc4)OC4(C(=O)c5ccccc5C4=O)C3C2=O)c1 (stereo not given)	i
COc1ccc(C(CNC(=O)c2ccc(NS(=O)(=O)c3cccc([N+](=O)[O-])c3)cc2)N2CCOCC2)cc1 (stereo not given)	i
O=C(O)COc1ccccc1-c1ccccc1	i
Cn1nc(-c2ccccc2)cc1NC(=O)Nc1ccc(C(C)(C)C)cc1	i
CC(C)(C)NC(=O)CN(C(=O)CS(=O)CC(=O)Nc1ccc(F)cc1)c1ccccc1F (stereo not given)	i
O=C(CN1CCCc2ccccc21)NCc1ccc2c(c1)OCO2	i
COc1ccc(CNc2nc3nc(C)cc(C)n3n2)cc1	i
CN1CC(=O)N=C1N	i
CCCOCCOC(=O)c1[nH]c2c(c1C)C(=O)CC(c1cc(OC)ccc1OC)C2 (stereo not given)	i
CCCCC12CN3CC(C)(CN(C1)C3c1ccc([N+](=O)[O-])o1)C2=O (stereo not given)	i
Cc1ccc2nc(SCc3cn4c(C)cc(C)nc4n3)[nH]c2c1	i

Quoted at random: 2 records from the list, in no set order.
SMILES	CHT inh
Cc1nc(-c2nnc(-c3ccccc3)o2)c(C(F)(F)F)o1	i
Cc1ccc2nc(SCc3cn4c(C)cc(C)nc4n3)[nH]c2c1	i

Next compounds.
SMILES	CHT inh
Cc1ccc(-c2noc(CCCC(=O)N3CCOCC3)n2)cc1	i
COc1ccc(OCCN2CCN(C(=O)c3ccc(OC)c(OC)c3)CC2)cc1	i
O=C(O)CSC1=NC(=Nc2ccc(Cl)cc2)C2(CCCCC2)N1c1cccc(C(=O)O)c1	i
Fc1ccc(NC(=S)NC2CC3CCC(C2)N3Cc2ccco2)cc1 (stereo not given)	i
N#Cc1nc(-c2ccccc2Cl)oc1NCC1CCCO1 (stereo not given)	i
CC(C)(C)NC(=O)C(c1ccco1)N(C(=O)Cn1nnc(-c2ccc(F)cc2)n1)c1ccccc1F (stereo not given)	i
O=C(Nc1ccc(F)cc1F)c1cc2ccccc2oc1=O	i
Cc1ccccc1OCC(O)CN1CCN(c2ccccn2)CC1 (stereo not given)	i
O=C(Nc1ccccc1N1CCCC1)c1ccc(Br)o1	i
C/C(=N\Nc1cc(N2CCOCC2)ncn1)c1ccccc1	i
COc1cc(/C=C/C(=O)O)cc(S(=O)(=O)NC2CCCC2)c1OC	i
O=C(CC1C(=O)NCCN1CC1CCCCC1)NCc1cccc(F)c1F (stereo not given)	i
O=C(NCCc1ccc(F)cc1)c1ccc2c(=O)n3c(nc2c1)CCC3	i
COc1ccc2oc(=O)c(C(=O)NCc3ccc(F)cc3)cc2c1	i
O=S(=O)(NCc1cn2ccccc2n1)c1cc(F)ccc1F	i
COc1ccc(N2CCN(S(=O)(=O)c3ccc4c(c3)N(C(C)=O)CCO4)CC2)cc1	i
Cc1[nH]nc(N=CC2=C(O)CC(c3ccco3)CC2=O)c1-c1ccc(Cl)cc1 (stereo not given)	i
CCOc1ccccc1OCCCC(=O)N(CC)CC(=O)Nc1c(F)cccc1F	i
CC(C)c1ccc(C(=O)NCCCN2CCOCC2)cc1	i
C=CCN1C(=O)C(Cc2cccc(Cl)c2)SC1=Nc1ccc(C(=O)O)cc1 (stereo not given)	i
Cc1cccc(-c2oc(C)c(C)[n+]2[O-])c1	i
Cc1ccccc1CNC(=O)C(=O)NCC1OCCCN1S(=O)(=O)c1cccs1 (stereo not given)	i
CCN1CCN(CCOc2ccc(Cl)cc2)CC1	i
CSc1ncccc1C(=O)Nc1nccs1	i
COc1cc(OC)c(OC)cc1/C=N/n1c(-c2n[nH]c3c2CCC3)n[nH]c1=S	i
O=C(COc1ccccc1F)NNC(=O)c1cccc(-n2cccc2)c1	i
Cc1ccc(S(=O)(=O)N2CCN(Cc3csc(C)n3)CC2)cc1	i
Cc1nnc(-c2cccc(Br)c2)c2cn(-c3ccccc3)nc12	i
O=C(COCc1cc(-c2ccc3c(c2)OCO3)on1)Nc1cccnc1	i
COC(=O)c1ccc(Nc2cc(C)nc3ncnn23)cc1	i
C/C=C/C(=O)Nc1nnc(C(C)C)s1	i
N/C(=N\OC(=O)c1cccc(Br)c1)c1ccc([N+](=O)[O-])cc1	i
Cc1sc2nc(SCC(=O)C(C)(C)C)n(Cc3ccco3)c(=O)c2c1C	i
COc1cc(NC(=O)c2ccc(-c3cccc([N+](=O)[O-])c3)o2)ccc1NC(=O)C(C)C	i
CCCn1c(=O)c2ccccc2n2c(SCC(=O)N3CCc4ccccc4C3)nnc12	i
CC1(C)COC(c2cccc(C3=NC(C)(C)CO3)n2)=N1	i
CCC1(C)Cc2[nH]c(=O)c(C#N)cc2CO1 (stereo not given)	i
CC(NC(=O)c1cccnc1Sc1ccccc1)c1ccc(S(N)(=O)=O)cc1 (stereo not given)	i
